# PINK1 modulator – A Quantitative High throughput Screen to Identify Chemical Modulators of PINK1 Expression; AID 624263, 2012; 0.2% of 410,000 active; Potency, µM (series often up to 76.6 µM), inactives show at the highest dose activation (PINK1 increase), hits mostly activators; PINK1 immunofluorescence, high-content cytometry, 24 h; active = well fitted activation curve with a large enough effect; inconclusive = small, poorly fitted or top-dose-only effect; inactive = flat fitted curve, though single readings scatter; cell line not stated here;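 further: potency means the concentration at half of the fitted maximal effect; % of control where 0% means no effect; nearly all actives have a fitted effect of over 65% in size; a mitochondrial uncoupler was the plate control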
#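 Stable cell line treated 24 h with compounds at 5 concentrations (CCCP controls), then fixed and immunostained for PINK1 plus nuclear and cell stains; PINK1 immunofluorescence quantified by laser-scanning microplate cytometry.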
# CtBP-E1A inh – qHTS Assay for Inhibitors of the CtBP/E1A Interaction; CtBP / adenovirus E1A interaction (AlphaScreen); AlphaScreen GST-E1A/His-CtBP binding, 1536-well; stronger effect = lower value; control for the full effect not named in the record; activity change, % (concentration not given with the values); 0.49% of 340,000 active; AID 651724, 2012; in the data active means activity change below about -65%; inconclusive means about -30% to -65%; inactive means above about -30%; further: on the % scale 0 is the no-effect control and ±100 the full control effect
#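 AlphaScreen with 125 nM GST-E1A and 125 nM His-CtBP (5X stocks) in Tris pH 8.0, 300 mM NaCl, BSA, Tween 20, TCEP. Compounds preincubated 2 h at 37 deg C, then glutathione donor/nickel acceptor beads added for 1 h at 37 deg C in dark.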
# Six1-Eya2 inh – qHTS Assay for Inhibitors of the Six1/Eya2 Interaction. Homeobox protein SIX1 (Homo sapiens) + Protein phosphatase EYA2 (Homo sapiens), …. AlphaScreen GST-Six1/His-Eya2 binding, biochemical; stronger effect = lower value; control for the full effect not named in the record. activity change, % (no concentration beside the values). 0.56% of 360,000 active; in the data active = activity change below about -65%; inconclusive = about -30% to -65%; inactive = above about -30%; further: on the % scale 0 is the no-effect control and ±100 the full control effect; compound concentration not given in the record
#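 AlphaScreen with GST-Six1 and His-Eya2 (5X mix: 250 nM and 500 nM), glutathione donor and nickel acceptor beads; buffer 50 mM Tris pH 8.0, 300 mM NaCl, 1 mM TCEP; 1 h at 37 C in the dark.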
# Sfp inh – qHTS Assay for Inhibitors of Bacillus subtilis Sfp phosphopantetheinyl transferase (PPTase) | Biochemical Sfp PPTase activity, qHTS | Potency, µM, without a hit: max response, negative = inhibition, hits mostly inhibitors | AID 1490, 2009 | 4'-phosphopantetheinyl transferase ffp (Bacillus subtilis), Q9F4F7 | 3.5% of 310,000 active; active means well fitted inhibition curve with a large enough effect; inconclusive means small, poorly fitted or top-dose-only effect, or another doubt; inactive means no such curve, though single readings can be large or run the other way;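 further: the enzyme is Sfp with the accession as filed and its product quenches rhodamine fluorescence; potency means the concentration at half of the fitted maximal effect; 0% = enzyme reaction without inhibitor and -100% = no enzyme wells; top concentration of the series not given in the record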
#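 After 15 min at room temperature with compound, 15 nM Sfp received 5 uM rhodamine-CoA plus 12.5 uM BHQ-2-ybbR (50 mM Hepes pH 7.6, 10 mM MgCl2). Rate came from the fluorescence difference over 30 min, ex 525/em 598 nm.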
# TRPV1 potentiator – HTS Assay for Compounds that Act as Potentiators of the Vanilloid Receptor 1; 0.02% of 320,000 active; potentiation, % at 8.33 µM; AID 540277, 2011; Transient receptor potential cation channel subfamily V member 1 (Homo sapiens), Q8NER1; TRPV1-expressing cells, Fluo-8 calcium influx, capsaicin EC20 potentiation; host cell line not named in the record; control for the full effect not named in the record; active means potentiation above 80%; inconclusive means 30% to 80%; inactive means below 30%; further: 0% is about no effect
#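 TRPV1-expressing cells were cultured overnight at 35.5C and loaded with Fluo-8 calcium dye for 40 to 90 min at room temperature. After a 10 s baseline, compound was added and calcium influx was read kinetically for 3 min (ex 480/em 520 nm).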
# D2 agonist – Beta-Arrestin HTS for Positive Allosteric Modulators of the Human D2 Dopamine Receptor: Agonists | DiscoveRx PathHunter D2 beta-arrestin, luminescence, 90 min; 100% = 57 uM dopamine signal | D(2) dopamine receptor (Homo sapiens), P14416 | 0.084% of 360,000 active | activation, % (concentration not given with the values); in the data active = activation above about 40%; inconclusive = about 15% to 40%; inactive = below about 15%; further: compound concentration not given in the record; the text of the record calls up to 30% inactive
# Target sequence (P14416 whole entry, looked up): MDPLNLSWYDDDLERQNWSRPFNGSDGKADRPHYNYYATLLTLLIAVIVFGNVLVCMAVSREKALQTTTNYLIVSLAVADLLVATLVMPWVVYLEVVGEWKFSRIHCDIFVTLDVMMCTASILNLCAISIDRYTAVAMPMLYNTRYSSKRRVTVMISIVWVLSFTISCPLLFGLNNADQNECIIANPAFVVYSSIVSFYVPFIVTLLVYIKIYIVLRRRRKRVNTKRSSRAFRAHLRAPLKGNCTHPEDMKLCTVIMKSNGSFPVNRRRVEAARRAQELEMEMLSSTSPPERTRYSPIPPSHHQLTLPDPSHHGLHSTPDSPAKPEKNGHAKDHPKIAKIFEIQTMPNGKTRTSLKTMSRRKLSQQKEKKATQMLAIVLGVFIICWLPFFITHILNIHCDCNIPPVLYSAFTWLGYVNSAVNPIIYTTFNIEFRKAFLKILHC
#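 DiscoveRx PathHunter D2 beta-arrestin cells (2,100/well) attached overnight, then compound-stimulated 90 min at 37 C in HBSS/10 mM HEPES/0.1% Tween-20 buffer; beta-galactosidase complementation read by luminescence after 1 h at ambient temperature. Dopamine 57 uM final (EC100) as control.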
# D2 potentiator – Beta-Arrestin HTS for Positive Allosteric Modulators of the Human D2 Dopamine Receptor: Potentiators; DiscoveRx D2 beta-arrestin cells, luminescence, 90 min; 100% = 57 uM dopamine signal; potentiation, % (no concentration beside the values); 0.23% of 360,000 active; AID 624464, 2012; active = potentiation of 50% or more; inconclusive = 30% to 50%; inactive = 30% or less;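 further: compound concentration not given in the record; tested on top of an EC20 dose of dopamine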
#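 D2 cells co-treated with compound plus 50 nM dopamine (EC20) for 90 min at 37 deg C to detect potentiation. Beta-arrestin recruitment was read as enzyme-fragment luminescence after 1 h at ambient temperature. Full response was set by 57 uM dopamine.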
# * marks the source's active call; other numbers are inactive results; ? = inconclusive; . = not tested or not shown; & = joins results of further samples; [ ] = another dose, or the depositor's remark.
SMILES,PINK1 modulator,CtBP-E1A inh,Six1-Eya2 inh,Sfp inh,TRPV1 potentiator,D2 agonist,D2 potentiator
COc1ccccc1C1CC(=O)Nc2c1c(=O)n(C)c(=O)n2C (stereo not drawn),0.0%,7.1,-1.0,7.6%,.,2.8,-1.6
Cn1c(=O)c2nc(NCc3ccccc3)cnc2n(C)c1=O,1.6%,6.6,-16.0,15.6%,3.7,0.3,-7.5
Cc1ccc(S(=O)(=O)Nc2nnc(C3CCCCC3)s2)cc1,0.5%,3.1,-6.2,12.8%,?,-1.3,2.8
O=S1(=O)CC(N2CCC(Cc3ccccc3)CC2)CN1C1CCCC1 (stereo not drawn),-0.7%,2.0,-5.7,.,.,-0.4,-9.8
COc1ccccc1N1C(=S)NC2CS(=O)(=O)CC21 (stereo not drawn),-0.5%,7.4,5.7,-9.6%,3.3,-0.2,-3.4
COc1cccc(CN(C(=O)COc2ccc(C)cc2)C2CCS(=O)(=O)C2)c1 (stereo not drawn),-0.3%,0.8,-1.5,13.9%,-19.4,2.2,-5.3
O=C(O)C1C2CCC(O2)C1C(=O)NCc1ccccc1Br (stereo not drawn),2.9%,1.8,-4.5,16.2%,8.7,-2.7,-5.0
CC1CCCC(N2CCN(C(=O)c3ccc(F)cc3)CC2)C1 (stereo not drawn),-3.7%,2.4,3.9,.,.,-0.8,-4.4
CC(C)(C)C(=O)NC1(C(F)(F)F)NC(=O)N(CCc2ccccc2)C1=O (stereo not drawn),1.6%,10.8,-0.8,14.2%,6.3,-0.7,-0.7
CC(C)(C)c1ccc(C(=O)N2CCNCC2)cc1,-1.5%,-1.8,9.5,-13.0%,16.1,-0.4,-2.0
NC(=O)C1CCN(c2nc3c(S(=O)(=O)c4ccccc4)nnn3c3ccccc23)CC1,0.4%,.,?,6.1%,-0.5,-1.8,-9.9
O=C(COC(=O)c1ccccc1OCc1ccc(F)cc1)NCC1CCCO1 (stereo not drawn),2.7%,-0.5,24.6,.,-2.8,-5.7,-2.3
CC1CCN(c2nc(NCc3ccco3)nc(N)c2[N+](=O)[O-])CC1,5.2%,-20.2,-11.9,-7.9%,11.9,-2.2,0.4
CC1=NCCN1CCNC(=O)Nc1cc(C)cc(C)c1,0.8%,5.8,3.0,-1.3%,6.7,0.2,-9.9
Cc1ccc(C)c(NC(=O)Cc2coc3cc4c(cc23)CCC4)c1,15.4%,9.1,1.9,10.6%,-0.7,-7.7,-0.9
CC(C)NC(=O)c1ccc(-c2ccc(F)c(F)c2)c2ccoc12,1.8%,0.0,1.9,.,.,-4.6,-13.7
CC1(C(=O)NCc2ccc(Cl)c(Cl)c2)Oc2ccccc2NC1=O (stereo not drawn),0.6%,-1.7,7.6,15.4%,20.0,4.9,1.2
CCOc1ccc(N2CC(C(=O)Nc3nnc(Cc4ccc(OC)cc4)s3)CC2=O)cc1 (stereo not drawn),4.0%,0.0,-2.7,-8.1%,-7.2,-1.3,1.8
Clc1ccccc1CSc1cc2c(nn1)-c1ccccc1CC2,3.1%,22.6,21.1,0.6%,0.0,0.3,-5.6
CCc1nc2cc(NC(=O)C3(C)CCCN(C(C)=O)C3)ccc2o1 (stereo not drawn),0.9%,7.3,6.0,.,.,-3.2,-6.1
CCOC(=O)c1nn(-c2ccc(F)cc2)c2c1CC/C2=C/c1ccccc1,5.6%,0.1,-1.5,-0.1%,-6.8,-2.9,-2.7
CCN(C(=O)COC(=O)c1n[nH]c2ccccc12)C1CCS(=O)(=O)C1 (stereo not drawn),-2.0%,0.5,-0.1,5.5%,-4.7,-0.6,-10.5
CN(C)C(CNC(=O)c1ccc(S(=O)(=O)N(C)C)cc1)Cc1ccccc1 (stereo not drawn),1.6%,14.6,1.8,-4.6%,-7.3,-7.3,-27.5
COc1cc([N+](=O)[O-])ccc1NC(=O)CN1C(=O)NC2(CCCCC2C)C1=O (stereo not drawn),0.9%,-10.9,2.0,.,.,2.4,-10.9
CC(C)N1CCN(Cc2cccc(-c3ccco3)c2)CC1CCO (stereo not drawn),-0.8%,-5.2,-2.7,-3.5%,-5.7,2.9,-15.7
# (listing goes on)
SMILES,PINK1 modulator,CtBP-E1A inh,Six1-Eya2 inh,Sfp inh,TRPV1 potentiator,D2 agonist,D2 potentiator
CCCS(=O)(=O)NC(=O)C1(C)CCN(C(=O)c2ccco2)C1 (stereo not drawn),2.0%,-2.6,-0.7,.,.,-6.6,-0.8
CCC(=O)N(Cc1ccco1)c1nc(C(=O)Nc2ccc(Cl)cc2)c(C)s1,1.8%,.,4.9,20µM*,-3.7,-4.5,-7.4
C#CCOCCOCCOCCNc1nc(N2CCN(C(=O)CCCCCCCCCCNC(=O)[C@H](CCCCN)n3cc(CCO)nn3)CC2)nc(N2CCN(C(=O)CCCCCCCCCCNC(=O)[C@H](CCCN=C(N)N)n3cc(C[C@@H](C)CC)nn3)CC2)n1,-1.1%,-11.3,-9.7,.,26.5,8.1,-14.6
CCc1nc2ccc(C(=O)Nc3ccc(NC(C)=O)cc3)cn2c1N(C)CCCc1ccccc1,-0.1%,-13.9,-13.1,.,.,-3.6,-4.3
Cc1cccc(-n2c(SCC(N)=O)nnc2-c2ccco2)c1,-0.5%,.,8.9,8.0%,?,-1.3,-17.4
Cn1nnnc1SCCNC(=O)C1CCC(=O)N(CCc2cccc(F)c2)C1 (stereo not drawn),0.5%,.,8.7,13.3%,-9.2,-1.4,-7.9
CCC(=O)Nc1cc(OC)c(NC(=S)Nc2ccccc2CC)cc1OC,2.0%,-3.0,7.7,.,.,1.3,-3.2
Cc1ccc(NS(=O)(=O)c2ccc3c(c2)n(C)c(=O)n3C)cc1C,4.6%&1.1%,-1.9,-26.6,12.0%,10.5,5.2,0.3
CCOC(=O)[C@]12CCC=C1N(Cc1ccc3c(c1)OCO3)C(=O)[C@H](CC(=O)NCc1ccc(OC)c(OC)c1)C2,0.7%,-2.5,-7.0,.,.,.,.
COC(=O)COc1cccc(/C=N/NC(=O)CCSc2ccccc2)c1,3.0%,12.9,-0.1,10.8%,26.6,0.4,0.5
O=C(Nc1ccc(N=Nc2ccccc2)cc1)c1ccc(Cl)cc1Cl,.,8.9,-0.6,4.5%,-4.5,-0.5,-13.9
C=CCN1C(=O)C(Cc2ccc(OCC)cc2)SC1=Nc1ccc(C(=O)O)cc1 (stereo not drawn),1.0%,-0.4,1.7,14.6%,4.3,2.8,10.2
COC(=O)C1CCCCN1C(=O)c1ccc2oc(C(C)C)nc2c1 (stereo not drawn),-0.4%,-17.4,-7.6,17.6%,1.7,-3.3,-11.9
O=C(O)CSc1nnc(-c2ccncc2)n1-c1ccc(Cl)cc1,0.3%,-0.4,4.1,30.9%[activator],4.3,-1.8,-2.1
O=C(CSc1nnc(Cn2c(=O)sc3ccccc32)n1-c1ccccc1)Nc1nccs1,0.2%,-16.1,-0.4,79.4µM*,-10.2,-2.9,-5.7
C=CCOc1ccccc1/C=N/NC(=O)Cc1ccc(C)cc1,-0.1%,.,0.8,10.7%,-7.3,1.4,-56.3
COc1cc(C(CCN2CCOCC2)c2c(OC)cc(OC)c3c(-c4ccccc4)cc(=O)oc23)cc(OC)c1OC (stereo not drawn),-0.9%,-10.8,-13.8,?,.,-2.3,.
CCCc1nnc(SCC(=O)Nc2cccc(Cl)c2Cl)o1,1.6%,-7.7,-17.8,21.3%,-2.4,-0.3,3.1
CCOC(=O)[C@H]1[C@H]2COc3ccc(Cl)cc3[C@@H]2N2C(=O)CNC(=O)[C@@]12C,0.8%,5.3,-0.3,.,-2.2,-3.7,-10.5
O=C(CN(C(=O)CCC(=O)Nc1nccs1)C1CCCC1)NCc1ccc2c(c1)OCO2,-1.0%,.,7.7,9.1%,7.9,6.3,-1.0
O=C(Nc1cc(S(=O)(=O)N2CCCC2)ccc1OCC(F)(F)F)c1ccc(F)cc1,11.6%,-3.1,-3.1,8.5%,0.6,-1.2,-21.4
COc1ccccc1NC(=O)N1CCN(C)CC1,-0.2%,12.1,0.8,2.4%,-0.1,0.8,-3.9
Cc1ccc(Cc2c(-c3ccccc3)nc3ccc(Br)cn23)cc1,24.1%,5.9,5.8,.,.,-8.3,3.0
CCn1c(=O)n(CC)c2cc([N+](=O)[O-])ccc21,.,-0.4,-2.7,3.3%,-5.6,0.1,-36.4
Cc1c(C(=O)NCCCN2CCCC2=O)oc2ccccc12,3.9%[38.3 µM],1.8,1.8,8.6%,0.8,-1.7,2.6

# The final 2 compounds of the part above lead into the next:
SMILES,PINK1 modulator,CtBP-E1A inh,Six1-Eya2 inh,Sfp inh,TRPV1 potentiator,D2 agonist,D2 potentiator
CCn1c(=O)n(CC)c2cc([N+](=O)[O-])ccc21,.,-0.4,-2.7,3.3%,-5.6,0.1,-36.4
Cc1c(C(=O)NCCCN2CCCC2=O)oc2ccccc12,3.9%[38.3 µM],1.8,1.8,8.6%,0.8,-1.7,2.6
O=C(NCc1ccco1)C1CCCN1C(=O)Nc1ccc(Cl)cc1 (stereo not drawn),-0.2%,.,-0.6,18.9%,-7.5,-0.6,-14.0
CCc1ccc(N(CC(=O)Nc2sc3c(c2C(=O)OC)CCCC3)S(C)(=O)=O)cc1,7.1%,5.5,2.0,-20.7%,7.9,-7.4,-13.7
Cc1ccc(NC(=O)C(Nc2ccccc2)c2ccccc2)cc1 (stereo not drawn),3.9%,-2.0,1.2,7.2%,-4.7,-0.8,-1.8
c1ccc2[nH]c(CN3CCCCC3)nc2c1,4.0%[38.3 µM],17.1,3.0,14.5%,12.1,-1.0,-14.0
CN(C)c1ncc(S(=O)(=O)c2ccc(Cl)cc2)c(-c2ccc(Cl)cc2Cl)n1,6.1%,5.3,5.7,22.2%,-1.9,-1.9,-20.2
C/C(=N/NC(=O)c1ccco1)c1ccc(Br)s1,-0.2%,-6.2,-9.2,6.2%,-20.6,-1.6,-11.6

# Bioassay records (PubChem BioAssay)
